AID504770: E. coli YBA685 growth inhibition, screen for V. cholerae RctB inhibitors | 0.27% of 130,000 active | z-score (test concentration not listed) | E. coli YBA685 rctB-dependent plasmid, OD600 growth, 3 h; hits give low values;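 active = z-score under -2 on both plates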;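 also: wells of about 30 µL received 100 nL stock; score is relative to mean and SD of the test wells; the first replicate is given; strong numbers were not always called active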
CapD inh: CapD enzyme inhibition | purified CapD enzyme, fluorescence intensity read-out; hits give low values; some hits fall short of the stated cut | z-score (no concentration beside the values) | 0.23% of 140,000 active | AID 492967;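 active = z-score under -4 in either of two replicates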;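 also: stock transfer was 100 nL into about 40 µL; score is relative to mean and spread of the plate; one replicate is shown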
Numbers without * were called inactive; / = no result given.

SMILES	AID504770	CapD inh
OC(COc1ccc(Br)cc1Br)C[N+]1(Cc2ccccc2)CCOCC1 (stereo not drawn)	-0.05	0.77
CC1(C)SC(=S)N(CCN2CCOCC2)C1N(O)C(=O)Nc1cccc(Cl)c1 (stereo not drawn)	/	6.2
O=C1CNC(=S)N1Cc1cccc(Cl)c1	/	-0.61
CC(C)CNC(=O)c1cccc(NC(=O)c2ccco2)c1	-0.4	0.66
O=C(NCc1ccccc1)c1ccc2c(=O)n(CCC3=CCCCC3)c(=O)[nH]c2c1	-0.35	81
CCOC(=O)c1cnc2c(C)cc(C)cc2c1Nc1cccc(C)c1	/	-0.35
CCCCn1c(=N)n(CC(=O)c2ccc(Cl)c(Cl)c2)c2ccccc21	0.65	0.61
CC1=NN(C(=O)c2ccccc2)C(O)(C(C)(C)C)C1 (stereo not drawn)	0	-0.36
[O-][n+]1onc2c1CCC1N(O)C(c3ccccc3)CC21O (stereo not drawn)	0.05	/
COc1ccc(C2CC(=O)C3=C(C2)NC(C)=C(C(=O)OCC(C)C)C3c2cc(OC)c(OC)c(OC)c2)cc1 (stereo not drawn)	/	38
O=C(Nc1ccc(-c2n[nH]c(=S)o2)cc1)c1ccccc1Br	0.65	1.9
O=C1OCCN=C(c2ccccc2)c2ccccc21	-0.5	-0.5
COc1ccccc1NC(=O)N1CCCN(C(=O)c2cccs2)CC1	/	-0.28
COc1ccc(CCNC(=O)CN2CCC(C)CC2)cc1	-1.1	/
O=C(CN1C(=O)CSc2ccccc21)NC1CCCCCCC1	-0.9	0.26
ON=C1CCN(Cc2ccccc2)CC1	/	0.045
COc1ccc(N2C(=O)C3C4c5ccccc5C(C(OC)OC)(c5ccccc54)C3C2=O)cc1 (stereo not drawn)	/	-1
O=S1(=O)CCC(Sc2ccc(Br)cc2)c2ccsc21 (stereo not drawn)	/	-0.17
CCOC(=O)N1CCN(CN2C(=S)SC3=NC(=O)CCCN32)CC1	-1.3	/
Cc1onc(-c2c(Cl)cccc2Cl)c1COC(=O)N1CCN(C(c2ccccc2)c2ccc(Cl)cc2)CC1 (stereo not drawn)	/	0.15
O=C(NCCO)c1ccc(-c2nnc(N3CCOCC3)c3ccccc23)cc1	/	0.015
O=C1CSCc2ccccc21	0.1	0.3
CC(C(=O)N1CCc2ccccc21)N1CCN(S(=O)(=O)/C=C/c2ccccc2)CC1 (stereo not drawn)	-0.55	/
NC(CO)C(=O)N/N=C/c1ccc(O)c(O)c1O (stereo not drawn)	0.25	-6.9*
N=C1CNc2ccccc2C(=O)O1	-0.2	/

Of the compounds above, these contain an aryl methoxy group:
SMILES	AID504770	CapD inh
COc1ccc(C2CC(=O)C3=C(C2)NC(C)=C(C(=O)OCC(C)C)C3c2cc(OC)c(OC)c(OC)c2)cc1 (stereo not drawn)	/	38
COc1ccccc1NC(=O)N1CCCN(C(=O)c2cccs2)CC1	/	-0.28
COc1ccc(CCNC(=O)CN2CCC(C)CC2)cc1	-1.1	/
COc1ccc(N2C(=O)C3C4c5ccccc5C(C(OC)OC)(c5ccccc54)C3C2=O)cc1 (stereo not drawn)	/	-1

Carrying on.
SMILES	AID504770	CapD inh
CN(C)C(=O)c1cn(-c2ccccc2)nc1-c1cc2ccccc2o1	0.6	19
C=CCN1C(=O)c2oc3ccccc3c(=O)c2C1c1ccc(O)c(OC)c1 (stereo not drawn)	-1.8	0.45
CCC(Sc1nc2ccccc2c(=O)n1CC1CCCO1)C(=O)NCc1cccnc1 (stereo not drawn)	/	-0.35
C=CCOc1ccc(CN2CCN(C(=O)C(CCCN(C(=O)OC(C)(C)C)/C(N)=N/C(=O)OC(C)(C)C)NC(=O)OC(C)(C)C)CC2)cc1 (stereo not drawn)	/	-0.12
CNCc1cn2cc(Cl)ccc2n1	-0.1	0.85
O=C(Nc1c2c(nn1-c1ccc(Cl)cc1)CS(=O)(=O)C2)C1CC1	-0.6	0.46
COc1ccc(-c2c[n+]3c(n2-c2ccccc2)CCCCC3)cc1	/	-0.15
O=C(NCCC1=CCCCC1)C1CCCN(C(=O)c2cnn(-c3ccccc3)c2-n2cccc2)C1 (stereo not drawn)	-0.8	-0.38
Cc1ccc(C2=NCCNC2=O)c(C)c1	0.9	0.12
O=C(Nc1cccc(C(F)(F)F)c1)/C(=C\c1cccnc1)NC(=O)c1cccs1	-0.45	-0.8
COc1cccc(OCC(=O)Nc2ccc(F)cc2)c1	-0.55	-0.92
C=C1c2ccccc2C(=O)N1c1ccc(F)cc1	2.1	0.4
Cn1ccnc1SCCS(=O)(=O)c1ccc(Cl)cc1	-0.45	-0.33
COc1ccc(C(=O)C2CC2c2ccc(Cl)cc2)cc1 (stereo not drawn)	0	-0.42
Nc1n[nH]c(Cc2nc(N)n[nH]2)n1	-0.2	0.43
O=C(c1ccc2c(=O)n(Cc3ccc4c(c3)OCO4)c(=S)[nH]c2c1)N1CCC(N2CCCCC2)CC1	/	0.86
COc1cc(-c2[nH]nc3c2C(c2cn[nH]c2-c2ccc(F)cc2)C(C#N)=C(N)O3)cc(OC)c1OC (stereo not drawn)	/	-1.4
O=C(Cc1ccccc1)Nc1ccccc1N1CCCC1	-0.35	/
CCn1c2ccccc2c2cc(NC(=O)c3cc4cc5cc(OC)ccc5nc4o3)ccc21	0.2	7.3
COC(=O)c1sc(S(=O)(=O)Nc2ccc3cn[nH]c3c2)c(C(=O)OC)c1C	0.45	/
OCC1C2c3ccccc3C(c3ccccc32)C1CO (stereo not drawn)	0.25	0.25
CCCCc1ccc(Nc2nc3cc(Cl)ccc3o2)cc1	0.6	/
CC1(C)CC(CCN)(c2ccccc2)CCO1 (stereo not drawn)	-0.85	/
O=C(CC1Sc2ccccc2NC1=O)OCC(=O)N1CCN(S(=O)(=O)c2ccccc2)CC1 (stereo not drawn)	-0.5	/
O=C(c1ccccc1O)N1N=C(c2ccc(F)cc2)CC1(O)C(F)(F)F (stereo not drawn)	/	-0.86

Retrieved by compound from above:
SMILES	AID504770	CapD inh
CN(C)C(=O)c1cn(-c2ccccc2)nc1-c1cc2ccccc2o1	0.6	19
O=C(Nc1cccc(C(F)(F)F)c1)/C(=C\c1cccnc1)NC(=O)c1cccs1	-0.45	-0.8
CCC(Sc1nc2ccccc2c(=O)n1CC1CCCO1)C(=O)NCc1cccnc1 (stereo not drawn)	/	-0.35
O=C(c1ccccc1O)N1N=C(c2ccc(F)cc2)CC1(O)C(F)(F)F (stereo not drawn)	/	-0.86
O=C(Nc1c2c(nn1-c1ccc(Cl)cc1)CS(=O)(=O)C2)C1CC1	-0.6	0.46
COc1cccc(OCC(=O)Nc2ccc(F)cc2)c1	-0.55	-0.92
Nc1n[nH]c(Cc2nc(N)n[nH]2)n1	-0.2	0.43

The listing continues:
SMILES	AID504770	CapD inh
O=C(Nc1c2c(nn1-c1ccccc1)CSC2)C1CC1	-1.6	-0.12
COc1ccc(CC(=O)N2N=C(C)CC2(O)c2ccccc2)cc1OC (stereo not drawn)	/	-0.28
O=C(NCc1ccco1)c1cc2ccccc2oc1=O	-0.1	-0.43
Cc1cc(=O)n(CC(=O)O)c2ccccc12	-0.1	/
NC(=S)N/N=C/c1ccccc1O	-1.4	/
COc1ccc2oc(C(=O)OCC(=O)Nc3ccc(S(=O)(=O)N4CCOCC4)cc3)c(C)c2c1	-0.15	/
CC(C)(C)OC(=O)N1CCCCC1CN (stereo not drawn)	-0.45	/
CN(C)c1cc(C(=O)N2CCN(C(=O)c3cc(Cl)nc(Cl)c3)CC2)nc(N(C)C)n1	/	0.45
OC(c1ccc(Cl)cc1)c1cnc(-c2ccccn2)nc1-c1ccc(Cl)cc1 (stereo not drawn)	/	-0.42
O=C(O)/C(=C/C(=O)c1ccccc1)Nc1ccccc1	-0.3	/
CCOc1ccc2c(c1)-c1c(ssc1=S)C(C)(C)N2C(=O)c1ccc([N+](=O)[O-])cc1	/	-0.49
CC(C)(C)c1ccc(S(=O)(=O)N2CCCC2C(N)=O)cc1 (stereo not drawn)	-0.3	/
COc1ccc(CNC(=O)c2ccc3nc(-c4ccc(OC)c(OC)c4)c(-c4ccc(OC)c(OC)c4)nc3c2)cc1	/	0.62
CC(C)NC(=S)NCc1cccnc1	-1.2	0.06
Cc1nn(-c2ccccc2)c(C)c1CCC(=O)Nc1ccc(S(C)(=O)=O)cc1	0.45	/
O=C(NC(=S)NCc1cccnc1)c1ccc2c(c1)OCO2	0.25	-0.32
Cc1ccccc1-c1nnc(SC(C)C(=O)Nc2ccc3c(c2)OCO3)n1C (stereo not drawn)	0.35	/
CNc1nc(C)c(C(C)(C)C)s1	1	-0.06
CC(=O)Nc1ccc(Br)cc1C(=O)C(=O)Nc1ccc2c(c1)OCO2	/	-0.21
COC(=O)c1ccccc1OC(=O)Cn1c(C(F)(F)F)nc2ccccc21	/	0.08
O=c1cc2nn[nH]n2nc1-c1ccccc1	0.1	12
CCn1cc(C(=O)c2ccccc2)c2ccccc21	0.1	-2.1
Cc1ccc(S(=O)(=O)Nc2cc(C(=O)NCC3CCCO3)ccc2N2CCCCC2)cc1 (stereo not drawn)	0.55	0.62
CCN1C(=O)/C(=C/c2c(-c3ccccc3)[nH][nH]c2=O)C(=O)c2ccccc21	-0.15	6.4
CCOc1cc(CN2CCN(c3cccc(C(F)(F)F)c3)CC2)ccc1OC	-0.35	0.08

Complete entries, looked up by structure. Screens in order: AID504770 | CapD inh
`O=C(O)/C(=C/C(=O)c1ccccc1)Nc1ccccc1` is listed with -0.3 | /
`CCOc1ccc2c(c1)-c1c(ssc1=S)C(C)(C)N2C(=O)c1ccc([N+](=O)[O-])cc1` is listed with / | -0.49
`CCOc1cc(CN2CCN(c3cccc(C(F)(F)F)c3)CC2)ccc1OC` is listed with -0.35 | 0.08

Going on with the list.
SMILES	AID504770	CapD inh
CCOC(=O)C1=CN(c2ccc(C)cc2)C=C(C(=O)OCC)C1c1ccc(OC)c(Br)c1	/	0.35
CCCCCCc1ccc(C(=O)NC(CO)Cc2ccc(Cl)cc2)cc1 (stereo not drawn)	/	0.3
Cc1cccnc1NC(=S)Nc1ccccc1Cl	/	0.035
CC(C)(C)OC(=O)N(CCOC(=O)NCCc1c[nH]c2ccc(O)cc12)Cc1c(Cl)cccc1Cl	/	0.76
Cc1cc(C)n(-c2ccc(C(=O)OCc3nc4ccccc4[nH]3)cc2)n1	-0.65	/
NNC(=O)C1CCN(Cc2cccnc2)CC1	/	0.04
CCOC(=O)C1CCCN(C(=O)CCCN2C(=O)CSc3ncccc32)C1 (stereo not drawn)	0.15	0.04
COc1ccc(-c2cc(C(=O)NCc3ccc(F)cc3)c3ccccc3n2)c(OC)c1	/	12
CN1CCN(c2ccccc2/C=N/NC(=O)c2cccnc2)CC1	-0.8	-1.3
CC(C)(C)c1cc(-c2csc(-c3ccno3)n2)cc(C(C)(C)C)c1O	-0.7	11
O=C1NC(=S)N/C1=C/c1cc(Br)c(Oc2ccc(C(F)(F)F)cc2[N+](=O)[O-])c(Br)c1	/	0.32
O=C(O)c1ccccc1OCCOc1ccccc1C(=O)O	-0.75	0.16
Cc1ccc(C(=O)O)cc1NC(=O)c1ccco1	0.2	1
Cc1cc(C(=O)NNC(=O)OCCC(C)c2ccccc2)n[nH]1 (stereo not drawn)	/	0.04
N#CCCN/N=C/c1ccc2c(c1)OCO2	/	-0.015
CCN(CC)CCn1c2ccccc2n2nc(C)c(=O)nc12	/	9.7
O=C(c1ccccc1C(F)(F)F)N1CCc2ccccc21	-0.4	/
O=S(=O)(c1ccc(F)cc1)N(Cc1ccc2c(c1)OCO2)S(=O)(=O)c1ccc(F)c(F)c1	-1	/
O=C(O)CCN1Cc2ccccc2C1=O	-0.5	0.96
Cc1cc(/C=C2\C(=O)NC(=S)N(c3ccccc3)C2=O)c(C)n1-c1cccc([N+](=O)[O-])c1	/	-0.94
COc1ccc(NC(=O)CCN2CCN(S(=O)(=O)c3cc(Cl)ccc3OC)CC2)cc1	-0.35	0.16
O=C(NCc1ccco1)c1ccccc1N(Cc1ccccc1)S(=O)(=O)c1ccccc1	0.15	0.47
CCOC(=O)N1CCC(NC(=O)Cn2c3ccccc3c(=O)c3cc(C)ccc32)CC1	/	2.3
CCOc1cc(C2C(C(=O)OCCSCC)=C(C)NC3=C2C(=O)CC(C)(C)C3)ccc1OC(C)=O (stereo not drawn)	/	10
Cc1cc(C)c(NC(=O)CSC2=NN3CCCC(=O)N=C3S2)c(C)c1	-0.15	0.38
The listing continues:
SMILES	AID504770	CapD inh
C=CCn1c(-c2ccc3ncccc3c2)n[nH]c1=S	/	-0.32
O=C(O)CC1CCS(=O)(=O)C1 (stereo not drawn)	-0.45	/
CCOC(=O)c1[nH]c2ccccc2c1NC=O	-0.7	25
CO/N=C/c1ccc(N2CCN(C(=O)c3ccc(F)cc3)CC2)c([N+](=O)[O-])c1	/	0.055
Fc1ccc(-c2csc(Nc3ccc(I)cn3)n2)cc1	/	-0.99
CN(C)S(=O)(=O)c1ccc2c(c1)nc(CCC(=O)Nc1ccc3c(c1)OCO3)n2C	2.1	/
O=C(COC(=O)c1ccc2c(c1)S(=O)(=O)N=C1CCCCCN12)Nc1cccc2nsnc12	-0.4	/
CCOC(=O)Cn1c(=O)n(Cc2ccccc2Cl)c(=O)c2cccnc21	-0.2	3.7
O=C(c1ccccc1)C12CN3CN(CN(C3)C1)C2	3.6	-1.1
CC1(c2ccccc2)NC(=O)NC1=O (stereo not drawn)	-0.3	/
COc1cc(/C=C2\N=C(c3ccc(Cl)c([N+](=O)[O-])c3)OC2=O)cc(Br)c1OC(C)=O	/	-0.6
CCOC(=O)N1CCN(C(=O)c2sc3ncnc(N4CCOCC4)c3c2C)CC1	/	0.17
CC(=O)N1CC(C)Oc2ccc(S(=O)(=O)Nc3ccc(Cl)cn3)cc21 (stereo not drawn)	0	-0.15
Cc1ccc(C)c(S(=O)(=O)N2CCc3ccccc3C2CN2C(=O)c3ccccc3C2=O)c1 (stereo not drawn)	/	-0.71
Cc1ccccc1C(=O)NCC(=O)c1ccc(Cl)cc1	-0.15	-0.09
CCn1ccnc1C(O)c1cc(OC)ccc1OC (stereo not drawn)	-0.25	-1.2
